Compound activity (PubChem BioAssay)
rRNA inh HTS – inhibitors of bacterial rRNA selective over humanized ribosomes | E. coli WT GFP vs humanized-ribosome RFP mutants, fluorescence, 24 h; hits give low values; DMSO median 0, no signal -100 | GFP signal change (wild-type ribosome), % (test concentration not listed) | 350,000 tested, 1.6% active;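 active means significant combined selectivity score with lowered wild-type GFP, culture density cut under 30%, mutant RFP and density less affected; inactive means any of these conditions unmet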; further: one replicate is shown; some compounds called inactive have numbers as strong as hits
rRNA inh HTS OD600 – recorded beside rRNA inh HTS, whose call it bears; OD600 change, %; measured here: OD600 growth;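 optical density of the mix in the first replicate; 0 = DMSO median and -100 = no signal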
rRNA inh HTS RFP – recorded beside rRNA inh HTS, whose call it bears; RFP signal change, %; measured here: RFP humanized mutant strains;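 first replicate; 0 = DMSO median and -100 = no signal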
Active calls of the source: *.

SMILES | rRNA inh HTS | rRNA inh HTS OD600 | rRNA inh HTS RFP
O=C(Nc1ccccc1F)N1CCCCN2[C@H](C1)[C@H](c1ccc(C#Cc3ccccc3)cc1)[C@@H]2CO | 2 | 9 | 8.1
CC(NC(=O)C1CC(=O)N(c2ccc3c(c2)OCCO3)C1)c1ccccc1 (stereo unspecified) | 6 | 10 | 0.3
CC(=O)N1C[C@@H](CO)[C@@H](N(C)C(=O)C2CCCCC2)C[C@H]1c1ccccc1 | 6 | 10 | 0.1
C[C@@H]1CCCCO[C@H](CN(C)C(=O)Nc2ccc3c(c2)OCO3)[C@@H](C)CN([C@@H](C)CO)C(=O)c2cc(NS(=O)(=O)c3cn(C)cn3)ccc2O1 | -17 | -29 | -1.9
CSCCC(c1nc2ccccc2[nH]1)n1c(-c2ccc3ncccc3c2)nc2ccccc21 (stereo unspecified) | -5 | -7 | 4.3
C[C@H](CO)N1C[C@H](C)[C@@H](CN(C)C(=O)NC2CCCCC2)Oc2ccc(NC(=O)CCN3CCOCC3)cc2C1=O | 10 | 23 | -1.2
Cc1cc(C(=O)Nc2ccc3c(c2)C(=O)N(C)[C@@H]2CC[C@H](CC(=O)O)O[C@@H]2CO3)no1 | 2 | 6 | 0.0
C[C@H](CO)N1C[C@H](C)[C@H](CN(C)C(=O)NC2CCCCC2)OCCCC[C@H](C)Oc2ccc(NC(=O)CCC(F)(F)F)cc2C1=O | 1 | -2 | -0.4
O=C(C[C@H]1CC[C@@H](NC(=O)Nc2ccccc2)[C@@H](CO)O1)NCc1ccccn1 | 3 | 11 | -2.6
C[C@@H]1CN([C@H](C)CO)C(=O)c2cc(NC(=O)NC3CCCCC3)ccc2O[C@@H](C)CCCCO[C@H]1CN(C)S(=O)(=O)c1ccccc1 | -2 | -5 | -1.5
COc1ccc(S(=O)(=O)N(C)C[C@H]2Oc3ccc(NC(=O)Nc4ccc(F)cc4)cc3CC(=O)N([C@H](C)CO)C[C@H]2C)cc1 | 1 | -9 | 3.7
COCC#Cc1cnc2c(c1)C(=O)N([C@@H](C)CO)C[C@@H](C)[C@@H](CN(C)Cc1ccc(F)cc1)O2 | -1 | 15 | -2.5
CO[C@@H]1CN(C)C(=O)c2cc(NC(=O)c3ccccc3)ccc2OC[C@H](C)N(C)C[C@H]1C | 4 | 5 | -4.2
C[C@@H]1CCCCO[C@H](CN(C)S(=O)(=O)c2cccs2)[C@@H](C)CN([C@@H](C)CO)C(=O)c2cc(NS(=O)(=O)c3ccc(F)cc3)ccc2O1 | 2 | -1 | 3.8
O=C(C[C@@H]1C[C@@H]2c3cc(NC(=O)Cc4ccncc4)ccc3O[C@@H]2[C@H](CO)O1)NCc1cccnc1 | 4 | 1 | -4.5
COc1ccc(NC(=O)Nc2ccc3c(c2)C(=O)N([C@H](C)CO)C[C@@H](C)[C@@H](CN(C)C(=O)NC(C)C)OCCCC[C@H](C)O3)cc1 | 3 | 4 | -3.0
O=C(CCC(=O)OCCOc1ccccc1)OCCOc1ccccc1 | 1 | 8 | 1.8
CC(C)NC(=O)Nc1ccc2c(c1)C(=O)N([C@@H](C)CO)C[C@@H](C)[C@H](CN(C)S(=O)(=O)c1cn(C)cn1)OCCCC[C@@H](C)O2 | 4 | 12 | -2.6
COc1ccccc1S(=O)(=O)N[C@H]1C=C[C@H](CC(=O)NCc2cc(F)cc(F)c2)O[C@@H]1CO | 1 | 4 | -1.5
C[C@@H]1CCCCO[C@@H](CN(C)CC2CC2)[C@H](C)CN([C@H](C)CO)C(=O)c2cc(NS(=O)(=O)c3ccccc3)ccc2O1 | 2 | 1 | -1.1
N#C[C@@H]1[C@H](c2ccc(-c3cncnc3)cc2)[C@@H](CO)N1C(=O)Cc1ccccc1 | -35 | -66 | 0.3
COCc1cn(CC[C@H]2CC[C@@H](NC(=O)Nc3ccc(F)cc3)[C@H](CO)O2)nn1 | 2 | 1 | -2.0
CCC(=O)Nc1ccc2c(c1)OC[C@H](C)N(Cc1ccncc1)C[C@H](C)[C@H](OC)CN(C)C2=O | -2 | -1 | -1.4
C[C@@H]1CCCCO[C@H](CN(C)C(=O)Cc2ccccc2)[C@@H](C)CN([C@@H](C)CO)C(=O)c2cc(NS(=O)(=O)c3cn(C)cn3)ccc2O1 | 1 | 2 | -1.1
Cc1ccc(S(=O)(=O)Nc2ccc3c(c2)C(=O)N([C@@H](C)CO)C[C@H](C)[C@@H](CN(C)Cc2ccccc2)O3)cc1 | -1 | -7 | 1.6
CN1C(=O)c2cc(NC(=O)c3cccs3)ccc2OC[C@@H]2O[C@H](CC(=O)NCC3CC3)CC[C@@H]21 | -5 | -5 | 0.6
C/C=C/c1ccc2c(c1)O[C@@H](CN(C)C(=O)Nc1ccc(C(F)(F)F)cc1)[C@H](C)CN([C@H](C)CO)S2(=O)=O | 0 | -8 | -1.3
Cc1noc(C)c1S(=O)(=O)Nc1cccc2c1O[C@H](CN(C)S(=O)(=O)c1ccc(F)cc1)[C@H](C)CN([C@@H](C)CO)C2=O | 0 | 2 | -0.6
COCC(=O)N1C[C@H](C)[C@@H](OC)CN(C)C(=O)c2ccc(NC(=O)NC(C)C)cc2OC[C@@H]1C | 3 | 0 | -1.7
C[C@H](CO)N1C[C@H](C)[C@@H](CN(C)Cc2ccccc2)Oc2ccc(NC(=O)CCN3CCOCC3)cc2CC1=O | 3 | -2 | -0.4
COc1ccc(CNC(=O)C[C@@H]2CC[C@@H]3[C@H](COc4ccc(NC(C)=O)cc4C(=O)N3C)O2)cc1 | -2 | -3 | -1.9
C[C@@H]1CCCCO[C@@H](CN(C)CC2CC2)[C@H](C)CN([C@@H](C)CO)C(=O)c2cc(NC(=O)c3ccccc3)ccc2O1 | 3 | 11 | 0.0
O=C(C(=O)N1CCC(CNC(=O)c2cccnc2Cl)CC1)c1cc2ccccc2o1 | -5 | 1 | 0.2
Cc1noc(C)c1S(=O)(=O)Nc1ccc2c(c1)C(=O)N([C@@H](C)CO)C[C@H](C)[C@H](CN(C)Cc1ccc(C(F)(F)F)cc1)O2 | -3 | -4 | 4.8
CCC(=O)N1CC(=O)N2[C@H](CO)[C@@H](c3ccc(-c4ccccc4F)cc3)[C@H]2C1 | 3 | 34 | -4.5
O=C(C[C@H]1C[C@H]2c3cc(NC(=O)Nc4ccccc4F)ccc3O[C@H]2[C@@H](CO)O1)NCc1ccncc1 | 0 | 0 | -1.3
O=C(C[C@H]1C[C@@H]2c3cc(NC(=O)CC4CC4)ccc3O[C@@H]2[C@@H](CO)O1)NCCN1CCCCC1 | 0 | -1 | -2.4
CCCc1cn(CC[C@@H]2CC[C@@H](NC(=O)Cc3cccnc3)[C@@H](CO)O2)nn1 | 5 | 1 | -1.5
COC(=O)[C@]12C[C@H](CC(=O)NCc3ccc(C)o3)C(=O)N(Cc3ccccc3)C1=C[C@H](C(C)(C)C)O[C@@H]2C | 2 | -1 | 6.9
CCCC#Cc1ccc2c(c1)O[C@@H](CN(C)C(C)=O)[C@H](C)CN([C@@H](C)CO)S2(=O)=O | -3 | -12 | -0.5
COc1cccc(S(=O)(=O)Nc2ccc3c(c2)[C@H]2C[C@H](CC(=O)NCc4ccccc4F)O[C@@H](CO)[C@H]2O3)c1 | 2 | -10 | 1.8
COCCNC(=O)C[C@H]1CC[C@H]2[C@@H](COC[C@@H](O)CN2S(=O)(=O)c2ccccc2C)O1 | -4 | -7 | 2.2
CO[C@@H]1CN(C)C(=O)c2cc(NS(=O)(=O)c3ccccc3Cl)ccc2OC[C@H](C)NC[C@@H]1C | 3 | 8 | -0.6
CC(=O)N1[C@H](CO)[C@H](c2ccccc2)[C@@H]1CNC(=O)c1ccncc1 | 2 | 7 | -3.9
CCCNC(=O)Nc1ccc2c(c1)OC[C@@H](C)N(CCC(F)(F)F)C[C@@H](C)[C@H](OC)CN(C)C2=O | -4 | -7 | 0.3
CN(C)C(=O)C[C@H]1CC[C@H]2[C@@H](COC[C@@H](O)CN2S(=O)(=O)c2ccccc2)O1 | -2 | 7 | -1.8
COc1cccc(CN2[C@H](CO)[C@@H](c3ccccc3)C23CN(Cc2ccccc2OC)C3)c1 | -3 | -11 | 13
Cc1ccc(S(=O)(=O)N2CC3C(=O)C[C@@H](c4ccccc4Cl)N(S(=O)(=O)c4ccc(C)cc4)C3CC2c2ccccc2)cc1 (stereo partly specified) | 11 | 11 | 0.2
Cc1ccc(S(=O)(=O)N(C)C[C@H]2Oc3c(NC(=O)Nc4ccc5c(c4)OCO5)cccc3C(=O)N([C@@H](C)CO)C[C@@H]2C)cc1 | -3 | -14 | -1.0
C[C@H](CO)N1C[C@H](C)[C@H](CN(C)C(=O)Nc2ccccc2)Oc2c(NC(=O)C3CCCCC3)cccc2C1=O | 1 | 1 | -1.6
CC(C)NC(=O)N(C)C[C@@H]1OCCCC[C@H](C)Oc2ccc(NC(=O)NC3CCCCC3)cc2C(=O)N([C@H](C)CO)C[C@@H]1C | -1 | -6 | -0.8
C[C@@H]1CN([C@H](C)CO)C(=O)Cc2cc(NS(=O)(=O)c3ccc(Cl)cc3)ccc2O[C@@H]1CN(C)C(=O)Nc1ccccc1 | -1 | -7 | -0.4
O=C(NCC[C@H]1CC[C@H](NC(=O)C2CCOCC2)[C@H](CO)O1)Nc1ccc(Cl)cc1 | -32 | -57 | 18
Cc1ccccc1S(=O)(=O)N1CC[C@H]2[C@H](CO)Nc3ccc(-c4ccccc4F)cc3[C@H]21 | -5 | -31 | 12
COCC(=O)N[C@H]1CC[C@H](CC(=O)N2CCCCC2)O[C@@H]1CO | 2 | 2 | -0.4
CO[C@@H]1CN(C)C(=O)c2cc(NC(C)=O)ccc2OC[C@H](C)N(Cc2cccnc2)C[C@@H]1C | 2 | 5 | -1.5
CO[C@H]1CN(C)C(=O)c2ccc(NS(=O)(=O)c3ccc(C)cc3)cc2OC[C@@H](C)N(C(=O)NC(C)C)C[C@H]1C | -3 | -6 | -0.9
CCCNC(=O)C[C@H]1CC[C@@H]2[C@H](COc3ccc(NC(=O)COC)cc3C(=O)N2C)O1 | -2 | -7 | -5.0
C[C@@H]1CCCCO[C@H](CN(C)S(=O)(=O)c2ccc(F)cc2)[C@@H](C)CN([C@H](C)CO)C(=O)c2cc(NC(=O)Cc3ccccc3)ccc2O1 | 4 | 1 | -0.6
COCCN(Cc1ccc(C)cc1)C(=O)[C@H]1O[C@@H](n2ccc(=O)[nH]c2=O)[C@H](O)[C@@H]1O | 1 | 0 | -2.3

(more compounds)
SMILES | rRNA inh HTS | rRNA inh HTS OD600 | rRNA inh HTS RFP
CN1[C@@H]2Cn3c(ccc(/C=C/c4ccccc4)c3=O)[C@H]1[C@@H](C(=O)NC1CCC1)[C@@H]2CO | -1 | 5 | 3.6
CO[C@H]1CN(C)C(=O)c2cc(NC(C)=O)ccc2OC[C@@H](C)N(CCC(F)(F)F)C[C@H]1C | 3 | 6 | 2.8
CC(CC(=O)Nc1ccc2c(c1)c(=O)n(C)n2Cc1ccc(F)cc1)C(F)(F)F (stereo unspecified) | 2 | 22 | -0.2
Cc1ccc(S(=O)(=O)N(C)C[C@H]2OCCCC[C@H](C)Oc3ccc(NC(=O)Cc4ccccc4)cc3C(=O)N([C@H](C)CO)C[C@H]2C)cc1 | 1 | 4 | 1.4
COc1ccc2c3c(n(C)c2c1)[C@H](CO)NCC31CN(C(C)=O)C1 | 3 | 2 | 1.0
CN(C)CC#Cc1ccc([C@@H]2[C@H]3CN(C(=O)c4ccccc4)CC(=O)N3[C@H]2CO)cc1 | 3 | 11 | -0.8
COCC(=O)N(C)C[C@@H]1Oc2cc(C#CCC3CCCC3)ccc2S(=O)(=O)N([C@H](C)CO)C[C@@H]1C | -5 | -26 | 12
Cc1ccc(S(=O)(=O)N(C)C[C@H]2OCCCC[C@@H](C)Oc3ccc(NS(=O)(=O)c4ccccc4)cc3C(=O)N([C@@H](C)CO)C[C@H]2C)cc1 | -1 | 4 | -1.3
COc1ccccc1C#Cc1ccc2c(c1)O[C@@H](CN(C)Cc1cccnc1)[C@H](C)CN([C@@H](C)CO)S2(=O)=O | -8 | -6 | 5.0
CCCCc1c(-c2ccccc2OC)ncn1Cc1c(F)cccc1F | -55 | -79 | -15
CO[C@@H]1CN(C)C(=O)c2ccc(NC(=O)CC(F)(F)F)cc2OC[C@@H](C)N(S(=O)(=O)c2cn(C)cn2)C[C@@H]1C | 3 | 5 | 2.3

Compounds shown so far with a CF3 group, in the order listed:
SMILES | rRNA inh HTS | rRNA inh HTS OD600 | rRNA inh HTS RFP
C[C@H](CO)N1C[C@H](C)[C@H](CN(C)C(=O)NC2CCCCC2)OCCCC[C@H](C)Oc2ccc(NC(=O)CCC(F)(F)F)cc2C1=O | 1 | -2 | -0.4
C/C=C/c1ccc2c(c1)O[C@@H](CN(C)C(=O)Nc1ccc(C(F)(F)F)cc1)[C@H](C)CN([C@H](C)CO)S2(=O)=O | 0 | -8 | -1.3
Cc1noc(C)c1S(=O)(=O)Nc1ccc2c(c1)C(=O)N([C@@H](C)CO)C[C@H](C)[C@H](CN(C)Cc1ccc(C(F)(F)F)cc1)O2 | -3 | -4 | 4.8
CCCNC(=O)Nc1ccc2c(c1)OC[C@@H](C)N(CCC(F)(F)F)C[C@@H](C)[C@H](OC)CN(C)C2=O | -4 | -7 | 0.3
CO[C@H]1CN(C)C(=O)c2cc(NC(C)=O)ccc2OC[C@@H](C)N(CCC(F)(F)F)C[C@H]1C | 3 | 6 | 2.8
CC(CC(=O)Nc1ccc2c(c1)c(=O)n(C)n2Cc1ccc(F)cc1)C(F)(F)F (stereo unspecified) | 2 | 22 | -0.2
CO[C@@H]1CN(C)C(=O)c2ccc(NC(=O)CC(F)(F)F)cc2OC[C@@H](C)N(S(=O)(=O)c2cn(C)cn2)C[C@@H]1C | 3 | 5 | 2.3

The list is partial (hit frequency here may not be typical).
